GLA inh pH 4.5: qHTS Assay for Inhibitors of Human alpha-Galactosidase at pH 4.5; activity change, negative = inhibition, % at 105 µM; Alpha-galactosidase A (Homo sapiens), P06280; AID 1467, 2008; purified enzyme, 4-MU-alpha-Gal fluorescence, pH 4.5; 230,000 tested, under 10 active; inconclusive = small, poorly fitted or top-dose-only inhibition, or a rising curve; inactive = flat fitted curve, though single readings scatter; no compound was filed as active;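 note: 0% = full activity with enzyme and -100% = basal without enzyme; dose as in the result columns while the protocol names 77 µM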
Target sequence (P06280 whole entry, looked up): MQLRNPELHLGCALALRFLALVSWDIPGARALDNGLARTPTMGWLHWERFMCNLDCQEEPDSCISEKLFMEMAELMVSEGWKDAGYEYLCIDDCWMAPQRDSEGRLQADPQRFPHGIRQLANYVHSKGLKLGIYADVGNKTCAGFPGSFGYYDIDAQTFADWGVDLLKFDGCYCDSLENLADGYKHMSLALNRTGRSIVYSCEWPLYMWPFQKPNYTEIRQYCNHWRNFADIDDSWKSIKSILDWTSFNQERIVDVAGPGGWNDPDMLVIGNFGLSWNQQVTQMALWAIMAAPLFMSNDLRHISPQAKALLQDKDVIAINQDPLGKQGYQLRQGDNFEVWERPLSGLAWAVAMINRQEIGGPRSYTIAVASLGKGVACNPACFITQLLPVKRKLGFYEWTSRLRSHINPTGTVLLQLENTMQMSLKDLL
miR-21 reporter: qHTS Assay for Modulators of miRNAs and/orActivators of miR-21. HeLa miR-21 FLuc reporter, luciferase, 48 h. Potency, µM (titrated, usually from 38.3 µM), without a hit: at the top dose reporter change, positive = more light. 340,000 tested, under 10 active. AID 2288, 2010; active = well fitted rising curve with a large enough effect; inconclusive = small, poorly fitted or top-dose-only effect; inactive = no such curve, though single readings can be large or run the other way;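 note: % of control where 0% means no effect; miR-21 action dims this reporter so a rising signal means less miR-21 action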
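Compounds were titrated across several concentrations (up to approximately 40 uM) and incubated 48 hours with HeLa miR-21-FLuc reporter cells (miR-21 target sequence downstream of FLuc, endogenous miR-21). Readout was firefly luciferase luminescence after lytic detection reagent.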
* hit, by the source's call; ? = inconclusive; . = not tested or not shown; & = joins results of further samples. Not all compounds are listed. The share of hits here may be higher or lower than overall.

cpd	molecule	GLA inh pH 4.5	miR-21 reporter
1	Cc1ccccc1OCC(O)CO (configuration not stated)	-2.7	.
2	Cc1cc(Cn2cnc3c2C[C@@H](C(=O)O)N(C(=O)C(c2ccccc2)c2ccccc2)C3)ccc1N(C)C	-14.1	.
3	CCC1OC(=O)C[C@H](O)C(C)[C@@H](O[C@@H]2OC(C)C(O)C(N(C)C)C2O)C(CCN2CC(C)CC(C)C2)CC(C)C(=O)/C=C/C(C)=C\[C@@H]1COC1OC(C)C(O)C(OC)C1OC (some centres not stated)	-10.9	.
4	Cc1onc(-c2ccccc2Cl)c1C(=O)N[C@H]1C(=O)N2[C@H]1SC(C)(C)[C@H]2C(=O)O	8.4	.
5	C[C@@]12CC[C@H]3[C@@H](CCC4=CC(=O)CC[C@]43C)[C@H]1CC[C@H]2C(=O)CO	-0.7	.
6	CC1CCC2(C(=O)O)CCC3(C)C(=CCC4C3(C)CCC3[C@@]4(C)CC(O)C(O)[C@@]3(C)CO)C2C1C (some centres not stated)	7.5	.
7	CCN(CC)CCOc1ccc(Cc2ccccc2)cc1	-16.2	.
8	COc1ccc(-c2cc(C(F)F)nn2-c2ccc(S(N)(=O)=O)cc2)cc1F	-0.9	.

Next section (2 carried over from the part before).
cpd	molecule	GLA inh pH 4.5	miR-21 reporter
7	CCN(CC)CCOc1ccc(Cc2ccccc2)cc1	-16.2	.
8	COc1ccc(-c2cc(C(F)F)nn2-c2ccc(S(N)(=O)=O)cc2)cc1F	-0.9	.
9	COc1cc(C=O)ccc1O	-6.7	.
10	CC1(C)[C@@H](O[C@H]2O[C@H](C(=O)O)[C@@H](O)[C@H](O)[C@H]2O[C@@H]2O[C@H](C(=O)O)[C@@H](O)[C@H](O)[C@H]2O)CC[C@]2(C)[C@H]3C(=O)C=C4[C@@H]5C[C@@](C)(C(=O)O)CC[C@]5(C)CC[C@@]4(C)[C@]3(C)CC[C@@H]12	-28.8	.
11	C[C@@H]1CC[C@]2(C(=O)O)CC[C@]3(C)C(=CCC4[C@@]5(C)C[C@@H](O)[C@H](O)[C@@](C)(CO)C5CC[C@]43C)C2[C@H]1C (some centres not stated)	-4.2	.
12	CC(C)(CO)[C@H](O)C(=O)NCCCO	0.0	.
13	CC[C@@]12CCCN3CCc4c(n(c5ccccc45)[C@](O)(C(=O)OC)C1)[C@H]32	-3.2&0.9&-9.9	.
14	COc1cc2nc(N3CCN(C(=O)[C@@H]4COc5ccccc5O4)CC3)nc(N)c2cc1OC	12.4	.
15	C=C1c2cccc(O)c2C(O)=C2C(=O)[C@@]3(O)C(O)=C(C(N)=O)C(=O)[C@@H](N(C)C)[C@@H]3[C@@H](O)[C@H]12	-1.4	.
16	Cc1ccsc1/C=C\C1=NCCCN1C	6.0	.

Pulled one by one from above:
cpd	molecule	GLA inh pH 4.5	miR-21 reporter
13	CC[C@@]12CCCN3CCc4c(n(c5ccccc45)[C@](O)(C(=O)OC)C1)[C@H]32	-3.2&0.9&-9.9	.
15	C=C1c2cccc(O)c2C(O)=C2C(=O)[C@@]3(O)C(O)=C(C(N)=O)C(=O)[C@@H](N(C)C)[C@@H]3[C@@H](O)[C@H]12	-1.4	.

More records.
cpd	molecule	GLA inh pH 4.5	miR-21 reporter
17	O=C(c1ccc(F)cc1)C1CCN(CCn2c(=O)[nH]c3ccccc3c2=O)CC1	-3.4	.
18	CCn1cc(C(=O)O)c(=O)c2cc(F)c(N3CCNC(C)C3)c(F)c21 (configuration not stated)	-2.2&-5.4	.
19	CCCCC(CC)COC(=O)c1ccccc1O (configuration not stated)	-12.0	.
20	O=C(O)[C@@H](O)[C@@H](O)[C@@H](O)[C@@H](O)C(=O)O (tested in a mixture with another compound)	-1.7	.
21	CN(C(=O)c1c(O)c2ccccc2n(C)c1=O)c1ccccc1	-20.3	.
22	CCC1(O)CC2CN(CCc3c([nH]c4ccccc34)[C@@](C(=O)OC)(c3cc4c(cc3OC)N(C)C3[C@]45CCN4CC=C[C@@](CC)([C@@H](OC(C)=O)[C@]3(O)C(=O)OC)[C@H]45)C2)C1 (some centres not stated)	-6.5	.
23	Cc1c(Cl)cccc1NC(=O)Cn1cc(C(=O)C2CCCCC2)c2ccccc21	.	?
24	Cc1ccc(C)c(Nc2nc3nonc3nc2Nc2cccc(C)c2C)c1	.	?
25	Cc1cccc(Cc2c(C)nc3c(-c4ccccc4)c(C)[nH]n3c2=O)c1	.	?
26	CCOC(=O)c1sc(NC(=O)c2c(-c3ccccc3)c(-c3ccccc3)nn(C)c2=O)nc1C	.	15.1%
27	CC(C)OCc1cc(CN2CCN(c3ccccc3)CC2)c(O)c2ncccc12	.	?
28	CCOc1ccc2nc(N3CCC(C(=O)Nc4ccccc4CC)CC3)sc2c1	.	-21.0%
29	CCOC(=O)c1ccc(NC(=O)c2cc(=O)c3ccc(C)c(C)c3o2)cc1	.	-0.8%

Looked up above:
Reading for CCOC(=O)c1ccc(NC(=O)c2cc(=O)c3ccc(C)c(C)c3o2)cc1 in miR-21 reporter: -0.8%
Reading for CCOC(=O)c1sc(NC(=O)c2c(-c3ccccc3)c(-c3ccccc3)nn(C)c2=O)nc1C in miR-21 reporter: 15.1%
Reading for CCOc1ccc2nc(N3CCC(C(=O)Nc4ccccc4CC)CC3)sc2c1 in miR-21 reporter: -21.0%

Molecules above that have a halogen, in the order listed:
cpd	molecule	GLA inh pH 4.5	miR-21 reporter
4	Cc1onc(-c2ccccc2Cl)c1C(=O)N[C@H]1C(=O)N2[C@H]1SC(C)(C)[C@H]2C(=O)O	8.4	.
8	COc1ccc(-c2cc(C(F)F)nn2-c2ccc(S(N)(=O)=O)cc2)cc1F	-0.9	.
17	O=C(c1ccc(F)cc1)C1CCN(CCn2c(=O)[nH]c3ccccc3c2=O)CC1	-3.4	.
18	CCn1cc(C(=O)O)c(=O)c2cc(F)c(N3CCNC(C)C3)c(F)c21 (configuration not stated)	-2.2&-5.4	.
23	Cc1c(Cl)cccc1NC(=O)Cn1cc(C(=O)C2CCCCC2)c2ccccc21	.	?

Screening data as filed in PubChem.
